Sa RN4220 lethal – S. aureus RN4220 growth inhibition | AID 1259311 | inhibition, % (no concentration beside the values) | hit rate 0.33% among 330,000 | OD600, 16 h;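 active = z-score of -3 or lower and OD600 up to 0.18 on both plates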;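 also: plate controls were untreated cells for no effect and reference antibiotic for full effect; stock transfer was 100 nL into about 80 µL; one replicate is shown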
Bead autofluor – compound fluorescence in toxin protease inhibitor counterscreen; compound autofluorescence counterscreen, microsphere flow cytometry; active compounds read high; fluorescence intensity (no concentration beside the values); hit rate 3.1% among 360,000;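 active = at least 3 SD above the mean of all compounds, about 16000 in these data; inconclusive = too few beads counted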;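 also: 100 nL of 1 mM stock went into each well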
ugtP null kill – growth inhibition of S. aureus ugtP deletion strain; S. aureus RN4220 ugtP deletion, OD600 growth, 16 h; some inactives read as strong as hits; growth inhibition, % (concentration not given with the values); hit rate 0.54% among 330,000; AID 1259309;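 active = z-score under -3 and OD600 up to 0.15 on both plates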;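 also: plate controls were untreated wells for no effect and antibiotic for full effect; wells of about 80 µL received 100 nL stock; the first replicate is given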
PrP 5UTR inh – suppresses PrP 5' UTR mRNA reporter expression. hit rate 0.35% among 340,000. inhibition, % (no concentration beside the values). cell-based PrP 5' UTR mRNA reporter, plate reader. AID 488862;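 active = every replicate at 50% or more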;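 also: 0 = median of the neutral control wells; tested in H4 reporter cells; numbers are from one replicate; inactives centre near -14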
Mtb hypoxia inh – reduces hypoxia-regulated biosensor signal in M. tuberculosis. M. tuberculosis hypoxia-regulated fluorescent reporter, fluorescence. fluorescence inhibition, % (no concentration beside the values). hit rate 0.1% among 300,000. AID 1159583;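 active = 35 to 45% if threefold the growth effect, above 45% if 1.5-fold the growth effect; inactive = the rest, general growth blockers included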;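 also: wells of about 50 µL received 100 nL stock; 0% = vehicle wells and 100% = reference inhibitor wells; whole bacteria with a GFP reporter of the hypoxia response; strong numbers were not always called active; many hits fall short of the cut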
BJeLR lethal – kills HRASV12-expressing BJeLR cells. AID 1554. BJeLR (HRASV12) viability, CellTiter-Glo ATP luminescence, 48 h; reference of the scale not given here. inhibition, % (test concentration not listed). hit rate 0.17% among 300,000;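 active = replicate mean above 50%; inconclusive = above 50% but judged a plate artefact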;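 also: 50 nL library stock added to about 25 µL; numbers are from one replicate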
Mtb hypoxia inh growth – recorded beside Mtb hypoxia inh, whose call it bears; growth inhibition, %; measured here: M. tuberculosis growth (absorbance);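 0% = vehicle and 100% = reference antibiotic; read after six days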
An asterisk follows results filed as active.

COC(=O)c1ccc(NC(=O)c2sc3nc(-c4ccccc4)cn3c2C)cc1 was read as Sa RN4220 lethal 5.3, Bead autofluor 21396*, ugtP null kill 6, PrP 5UTR inh -20, Mtb hypoxia inh -2, BJeLR lethal 2 and Mtb hypoxia inh growth 4.
`CCCCCn1nc(C(=O)N2CCc3ccccc32)c2ccccc2c1=O` gave Sa RN4220 lethal 1.5, Bead autofluor 8780, ugtP null kill 3, PrP 5UTR inh -8, Mtb hypoxia inh 6 and Mtb hypoxia inh growth 12.
Screening N/C(=N\OC(=O)c1cccs1)c1cccc(Br)c1 returned Sa RN4220 lethal 5.3, Bead autofluor 3829, ugtP null kill 5, PrP 5UTR inh -103, Mtb hypoxia inh -1, BJeLR lethal 12 and Mtb hypoxia inh growth -3.
CC(=O)c1ccc(N2CCN(C(=O)Cc3cccs3)CC2)cc1 was read as Sa RN4220 lethal 16, Bead autofluor 4026, ugtP null kill 8, PrP 5UTR inh -13, Mtb hypoxia inh 20, BJeLR lethal 5 and Mtb hypoxia inh growth 6.
For CC(CCc1oc2ccc(Br)cc2c1-c1ccc(C)o1)=NO the results were Sa RN4220 lethal -5.0, ugtP null kill 89*, Mtb hypoxia inh 6 and Mtb hypoxia inh growth 4.
Screening Cc1cc(C)c(C)c(S(=O)(=O)Nc2ccccc2C(=O)NCCCn2ccnc2)c1C returned Sa RN4220 lethal 0.1, Bead autofluor 2385, ugtP null kill -6, PrP 5UTR inh -5, Mtb hypoxia inh -2, BJeLR lethal 12 and Mtb hypoxia inh growth -3.
Screening COc1ccc(-n2nc(C(=O)NCC(=O)NCCCN3CC(C)CC(C)C3)c3ccccc3c2=O)cc1Cl (stereo not drawn) returned Sa RN4220 lethal 0.8, Bead autofluor 4329, ugtP null kill 7, PrP 5UTR inh -2, Mtb hypoxia inh 3, BJeLR lethal -11 and Mtb hypoxia inh growth 6.
`CCOc1cc(CNCCCN2CCOCC2)ccc1OCC(=O)NC(C)(C)C` gave Sa RN4220 lethal 3.3, Bead autofluor 4590, ugtP null kill 1, PrP 5UTR inh 2, Mtb hypoxia inh 6, BJeLR lethal -10 and Mtb hypoxia inh growth -3.
`Cc1cccc(C(=O)OC(C)C(=O)N2CCN(Cc3ccccc3)CC2)c1` (stereo not drawn) gave Sa RN4220 lethal 2.5, Bead autofluor inconclusive, ugtP null kill 1, PrP 5UTR inh -4, Mtb hypoxia inh 11 and Mtb hypoxia inh growth 8.
For COc1ccccc1CNC(=O)C1CCC(CNS(=O)(=O)c2ccc(F)cc2)CC1 (stereo not drawn) the results were Sa RN4220 lethal 8.6, Bead autofluor 3428, ugtP null kill 13, PrP 5UTR inh -8, Mtb hypoxia inh -6, BJeLR lethal 5 and Mtb hypoxia inh growth -10.
`O=C(CCCCCNC(=O)c1ccccc1)NN=Cc1ccccc1` gave Sa RN4220 lethal -2.0, ugtP null kill 9, Mtb hypoxia inh 3 and Mtb hypoxia inh growth 11.
For COc1ccc(/C(N)=N/OC(=O)CSc2ccc(C)cc2)cc1OC the results were Sa RN4220 lethal 3.3, Bead autofluor 8261, ugtP null kill 13, PrP 5UTR inh -17, Mtb hypoxia inh 1, BJeLR lethal 0 and Mtb hypoxia inh growth 6.
`COc1ccc(NC(=S)N2CCN(Cc3ccccc3)CC2)c(OC)c1` gave Sa RN4220 lethal 5.0, Bead autofluor 2036, ugtP null kill 7, PrP 5UTR inh -17, Mtb hypoxia inh 15, BJeLR lethal -5 and Mtb hypoxia inh growth 11.
For CCCCn1c(SCC(=O)c2ccc3c(c2)NC(=O)CO3)nc2cc(S(N)(=O)=O)ccc21 the results were Sa RN4220 lethal 11, Bead autofluor 4991, ugtP null kill -7, PrP 5UTR inh -29, Mtb hypoxia inh 0, BJeLR lethal 0 and Mtb hypoxia inh growth 6.
O=[N+]([O-])c1ccc(COc2cccc(CNc3ccc(F)cc3)c2)cc1 was read as Sa RN4220 lethal 15, Bead autofluor 2404, ugtP null kill -8, PrP 5UTR inh -3, Mtb hypoxia inh 5, BJeLR lethal -1 and Mtb hypoxia inh growth -5.
CCOC(=O)C(NCc1ccc2c(c1)OCO2)(NC(=O)CC)C(F)(F)F (stereo not drawn) was read as Sa RN4220 lethal 4.4, Bead autofluor 8698, ugtP null kill 4, PrP 5UTR inh -24, Mtb hypoxia inh 3, BJeLR lethal -7 and Mtb hypoxia inh growth 9.
CC(=O)N(C)C(c1ccc(N(C)C)cc1)c1nnnn1-c1c(C)cccc1C (stereo not drawn) was read as Sa RN4220 lethal 6.9, Bead autofluor 2016, ugtP null kill 4, PrP 5UTR inh -14, Mtb hypoxia inh 3, BJeLR lethal 2 and Mtb hypoxia inh growth 7.
For COc1ccc(C2C(C(=O)Nc3ccc(F)cc3)=C(C)Nc3nc(CCCO)nn32)cc1 (stereo not drawn) the results were Sa RN4220 lethal -0.7, Bead autofluor 6223, ugtP null kill 7, PrP 5UTR inh 0 and BJeLR lethal -7.
Screening COc1ccccc1CC(NC(C)=O)C(=O)NC1CCN(C(=O)Nc2ccccc2F)CC1 (stereo not drawn) returned Sa RN4220 lethal 3.1, Bead autofluor 3079, ugtP null kill 10, PrP 5UTR inh 0, Mtb hypoxia inh 5, BJeLR lethal 5 and Mtb hypoxia inh growth 0.
For CC(C)c1ccc(CNc2nc3nc4c(c(=O)n3[nH]2)CCC4)cc1 the results were Sa RN4220 lethal 1.3, Bead autofluor 4670, ugtP null kill 1, PrP 5UTR inh -10 and BJeLR lethal 10.

Among those listed so far, 2 contain bromine:
Screening N/C(=N\OC(=O)c1cccs1)c1cccc(Br)c1 returned Sa RN4220 lethal 5.3, Bead autofluor 3829, ugtP null kill 5, PrP 5UTR inh -103, Mtb hypoxia inh -1, BJeLR lethal 12 and Mtb hypoxia inh growth -3.
For CC(CCc1oc2ccc(Br)cc2c1-c1ccc(C)o1)=NO the results were Sa RN4220 lethal -5.0, ugtP null kill 89*, Mtb hypoxia inh 6 and Mtb hypoxia inh growth 4.

Remaining list, next part.
COc1ccccc1C=NNC(=O)c1[nH]c(C)c(C(=O)NN=Cc2ccccc2OC)c1C was read as Sa RN4220 lethal 6.7, ugtP null kill -1, Mtb hypoxia inh 1 and Mtb hypoxia inh growth -3.
For CC(=O)Nc1cccc(NC(=O)Nc2cccc(F)c2)c1 the results were Sa RN4220 lethal 3.0, Bead autofluor 2515, ugtP null kill -2, PrP 5UTR inh -22, Mtb hypoxia inh 17, BJeLR lethal 0 and Mtb hypoxia inh growth 20.
Screening COC(=O)c1cc2occc2n1Cc1nc(-c2ccccc2F)oc1C returned Sa RN4220 lethal 4.7, Bead autofluor 5750, ugtP null kill -4, PrP 5UTR inh -5, Mtb hypoxia inh 9, BJeLR lethal 7 and Mtb hypoxia inh growth 3.
For CCOc1ccc2nc(NC(=S)N(C)C)sc2c1 the results were Sa RN4220 lethal -0.7, Bead autofluor 10317, ugtP null kill -2, PrP 5UTR inh -40, Mtb hypoxia inh 13, BJeLR lethal 1 and Mtb hypoxia inh growth 11.
O=C(/C=C/c1ccc2c(c1)OCO2)NCCSCc1ccc(Cl)cc1 was read as Bead autofluor 3105, PrP 5UTR inh -5 and BJeLR lethal -4.
Screening COc1ccc(C2CC(c3ccccc3C(F)(F)F)=NN2c2ccc(S(N)(=O)=O)cc2)cc1 (stereo not drawn) returned Sa RN4220 lethal -16, Bead autofluor 3567, ugtP null kill -18, PrP 5UTR inh -12, Mtb hypoxia inh 2 and Mtb hypoxia inh growth 3.
Cc1cccc(Oc2c([N+](=O)[O-])c(=O)n(C)c3ccccc23)c1 was read as Sa RN4220 lethal 1.5, Bead autofluor 4665, ugtP null kill 7, PrP 5UTR inh -23, Mtb hypoxia inh 9, BJeLR lethal 6 and Mtb hypoxia inh growth 11.
For COC(=O)C1CCN(C(=O)CCCOc2ccccc2)CC1 the results were Sa RN4220 lethal 5.2, Bead autofluor 4259, ugtP null kill -5, PrP 5UTR inh -30, Mtb hypoxia inh 2, BJeLR lethal 9 and Mtb hypoxia inh growth 5.
`COCCN1C(=O)C(=O)/C(=C(/O)c2ccc(S(=O)(=O)N3CCOCC3)cc2)C1c1ccc(O)c(OC)c1` (stereo not drawn) gave Sa RN4220 lethal 1.8, Bead autofluor 5868, ugtP null kill 2, PrP 5UTR inh 3, Mtb hypoxia inh -8, BJeLR lethal 4 and Mtb hypoxia inh growth -4.
CCN1CCN(S(=O)(=O)c2cccc(S(=O)(=O)N3CCOCC3)c2)CC1 was read as Sa RN4220 lethal 2.9, Bead autofluor 4973, ugtP null kill -4, PrP 5UTR inh -21, Mtb hypoxia inh 0, BJeLR lethal -4 and Mtb hypoxia inh growth 1.
`CN(C)c1ccc(C(=O)c2ccccc2)cc1` gave Sa RN4220 lethal 15, Bead autofluor 17206*, ugtP null kill 3, PrP 5UTR inh -54, Mtb hypoxia inh 12, BJeLR lethal 10 and Mtb hypoxia inh growth 14.
c1ccc2cc(Sc3ncnc4c3oc3ccccc34)ccc2c1 was read as Sa RN4220 lethal -1.7, Bead autofluor 6000, ugtP null kill -15, PrP 5UTR inh -11, Mtb hypoxia inh 3, BJeLR lethal -4 and Mtb hypoxia inh growth 8.
`CCCCSc1c(C)c2cc3c(cc2[nH]c1=O)OCO3` gave Sa RN4220 lethal 8.8, Bead autofluor 7644, ugtP null kill -9, PrP 5UTR inh -3, Mtb hypoxia inh -1, BJeLR lethal -12 and Mtb hypoxia inh growth 4.
COc1ccccc1-n1ccnc1SCC(=O)NCC1CCCO1 (stereo not drawn) was read as Sa RN4220 lethal 1.5, Bead autofluor 8517, ugtP null kill 6, PrP 5UTR inh -15, Mtb hypoxia inh -10, BJeLR lethal 3 and Mtb hypoxia inh growth -7.
Screening Cc1cccc(C(=O)NCC(=O)OCC(=O)NC2CCCCCCC2)c1 returned Sa RN4220 lethal 3.6, Bead autofluor 6036, ugtP null kill 2, PrP 5UTR inh -12, Mtb hypoxia inh 3, BJeLR lethal 1 and Mtb hypoxia inh growth 8.
For O=C(CCn1cnc2ccccc2c1=O)Nc1nc(-c2ccc(Br)cc2)cs1 the results were Sa RN4220 lethal 3.7, Bead autofluor 2343, ugtP null kill 1, PrP 5UTR inh 3, Mtb hypoxia inh 13, BJeLR lethal -3 and Mtb hypoxia inh growth 8.
Cc1nc2ccccc2c(=O)n1NC(=O)c1ccc(F)cc1Cl was read as Sa RN4220 lethal 7.0, Bead autofluor 9341, ugtP null kill -8, PrP 5UTR inh 2, Mtb hypoxia inh 1, BJeLR lethal 1 and Mtb hypoxia inh growth 7.
`CCOc1ccc(/C=C2\CCc3ccccc3C2=O)cc1` gave Bead autofluor 3749, PrP 5UTR inh 4 and BJeLR lethal -6.
`CCc1ccc(NC(=O)CSc2nncn2-c2cccnc2)cc1` gave Sa RN4220 lethal 1.0, Bead autofluor 6317, ugtP null kill 9, PrP 5UTR inh -39, Mtb hypoxia inh 0, BJeLR lethal -8 and Mtb hypoxia inh growth -6.
`CC1CCCN(C(=O)Cn2c(-c3nonc3N)nc3ccccc32)C1` (stereo not drawn) gave Sa RN4220 lethal 2.6, Bead autofluor 18146*, ugtP null kill -5, PrP 5UTR inh -4, Mtb hypoxia inh -8, BJeLR lethal -3 and Mtb hypoxia inh growth 0.
For CS(=O)(=O)NCCSCc1c(Cl)cccc1Cl the results were Sa RN4220 lethal 2.7, Bead autofluor 17037*, ugtP null kill 2, PrP 5UTR inh -15, Mtb hypoxia inh 10, BJeLR lethal 5 and Mtb hypoxia inh growth 4.
For CCOc1cc(NC(=S)NCC2CCCO2)c(OCC)cc1NC(=O)CC (stereo not drawn) the results were Sa RN4220 lethal 2.2, Bead autofluor 4566, ugtP null kill 6, PrP 5UTR inh -24, Mtb hypoxia inh 12, BJeLR lethal -11 and Mtb hypoxia inh growth 4.
CON=CC(NC(=O)c1ccc(C(F)(F)F)cc1)C(=O)OC (stereo not drawn) was read as Sa RN4220 lethal 6.8, ugtP null kill 6, Mtb hypoxia inh 22 and Mtb hypoxia inh growth 15.
Screening CCCn1c(=NC(=O)c2c(-c3c(F)cccc3Cl)noc2C)c(C(=O)OCC)cc2c(=O)n3ccccc3nc21 returned Sa RN4220 lethal -0.4, ugtP null kill 2, Mtb hypoxia inh 9, BJeLR lethal -6 and Mtb hypoxia inh growth 3.

This is a random part of the collection; about 4% have a hit in one of these screens.
